# Screens as filed in PubChem BioAssay.
# VDR inh – blocks the human vitamin D receptor; VDR-SRC2-3 peptide fluorescence polarization, 2 h; AID 504847; Potency, µM, for inactives: max response, negative = inhibition, actives largely listed as inhibitors; 0.93% of 400,000 active; P11473; active = well fitted inhibition curve with a large enough effect; inconclusive = small, poorly fitted or top-dose-only effect, or another doubt; inactive = no such curve, though single readings can be large or run the other way; note: series mostly up to about 120 µM
# Target sequence (P11473 whole entry, looked up): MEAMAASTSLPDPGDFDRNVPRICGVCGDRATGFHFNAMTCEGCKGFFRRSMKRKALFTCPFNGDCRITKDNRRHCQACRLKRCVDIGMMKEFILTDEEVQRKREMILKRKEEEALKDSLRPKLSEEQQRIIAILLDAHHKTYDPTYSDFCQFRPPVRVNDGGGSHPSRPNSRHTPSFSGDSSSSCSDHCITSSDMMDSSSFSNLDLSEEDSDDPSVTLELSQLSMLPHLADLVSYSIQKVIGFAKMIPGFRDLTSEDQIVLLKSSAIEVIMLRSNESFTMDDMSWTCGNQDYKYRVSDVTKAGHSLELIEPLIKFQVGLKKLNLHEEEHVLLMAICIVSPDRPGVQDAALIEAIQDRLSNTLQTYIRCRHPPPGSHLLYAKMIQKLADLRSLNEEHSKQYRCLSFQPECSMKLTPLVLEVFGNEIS
#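 Inhibition of the VDR/SRC2-3 peptide interaction is quantified by fluorescence polarization. Compounds (23 nl, pintool) incubate with the reagents for 2 hours at ambient room temperature.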
# Active calls of the source: *; ? = inconclusive; & = joins results of further samples. % is set by controls: 0 for no effect and ±100 for the full control effect; potency is the fitted concentration of half-maximal effect.
nr	Compound	VDR inh
1	COc1ccc(S(=O)(=O)N2CCCC(C(=O)N3CCN(c4ccccc4)CC3)C2)cc1Cl (stereo not given)	-7%
2	CC(C)(C)c1ccc(NC(=O)CNC2CCCc3ccccc32)cc1 (stereo not given)	-3%
3	C#CC(=O)CCC1CCCN1C(=O)OC(C)(C)C (stereo not given)	?
4	O=C(c1ccc(Cl)cc1)N1CCCCC(Sc2nnc(-c3ccc4c(c3)OCO4)o2)C1=O (stereo not given)	9%
5	CCOc1ccc(CNC(=O)Cn2nc(N3CCN(c4ccccc4)CC3)ccc2=O)cc1	12%
6	CCC[C@@H](CN1CCC[C@H]1CN1C(N)=NC[C@@H]1Cc1ccccc1)N1C[C@@H]([C@H](C)CC)N(CCc2ccc(Cl)c(Cl)c2)C1=N	-16%
7	O=C(N/N=C/c1cccnc1)c1cc2c(ccc3ccccc32)o1	3%
8	CCCN(CC(=O)Nc1cc(Cl)ccc1Cl)C(=O)c1ccccn1	11%
9	CC1CC(=O)Nc2ccccc2N1C(=O)Cn1cnc2ccc(Br)cc2c1=O (stereo not given)	-4%
10	O=C(Nc1ccc(Cl)cc1)c1ccc(OCC2CCCO2)cc1 (stereo not given)	5%
11	Cc1ccc(OCC(=O)OCC(=O)NC2CCCC2)cc1C	-7%
12	CC(C)(C)c1cc(/C=N/O)cc(C(C)(C)C)c1O	-24%
13	CCc1cc2c(=O)c(-c3nc(C)cs3)coc2cc1O	-7%
14	CC(=O)c1c(C)[nH]c(C(=O)CN2C(=O)NC3(CCCCC3)C2=O)c1C	0%
15	Cc1cc(OCC(O)CN(C)C(=O)C(C)Oc2ccccc2)ccc1Cl (stereo not given)	-1%
16	COc1ccc(CN2C(=O)c3cccnc3C2=O)cc1S(=O)(=O)NCc1ccc(C)o1	4%
17	CCCCN1C(=O)C(=O)N(CC(=O)N2N=C3/C(=C/c4ccco4)CCCC3C2c2ccco2)C1=O (stereo not given)	12%
18	CCOc1ccccc1C(=O)Nc1nnc(Cc2ccc(OC)c(OC)c2)s1	7%
19	CCCCOc1ccc(/C=N/NC(=O)c2nnn(-c3nonc3N)c2C)cc1	?
20	O=C(Nc1ccccc1C(=O)Nc1ccc(Cl)cc1)c1cccnc1	21%
21	COc1cccc(CC(=O)Nc2cc(S(=O)(=O)N3CCOCC3)ccc2N2CCOCC2)c1	-12%
22	Cc1ccc(NC(=O)CCNC(=O)Cn2ccc3ccccc3c2=O)cc1F	0%
23	CSc1nc(N)nc(SCCS(=O)(=O)c2ccc(Cl)cc2)c1C#N	20%
24	O=c1[nH]c2c(s1)C(c1ccco1)C1C3CCC(C3)C1S2 (stereo not given)	-13%
25	Cc1c(-c2ccccc2Br)nc2ccccc2c1C(=O)O	-1%
26	COCCN(C(=O)c1cccc(OC)c1)c1nnc(-c2ccncc2)s1	-6%
27	Cc1ccc(S(=O)(=O)N2CCN(Cc3ccccc3)CC2)c(C)c1N(C)S(=O)(=O)c1ccccc1	-15%
28	CC(C)CCNC(=O)C12CN(Cc3ccccc3)CC1C(c1cccc([N+](=O)[O-])c1)=NO2 (stereo not given)	-9%
29	N#Cc1ccccc1N/C=C/C(=O)c1ccc(Cl)cc1	-3%
30	CCNc1nc(OC)nc(Oc2ccc(C(=O)OC)cc2)n1	-6%

# Reprinted at random: 2 entries already listed, in no set order.
nr	Compound	VDR inh
19	CCCCOc1ccc(/C=N/NC(=O)c2nnn(-c3nonc3N)c2C)cc1	?
7	O=C(N/N=C/c1cccnc1)c1cc2c(ccc3ccccc32)o1	3%

# (listing goes on)
nr	Compound	VDR inh
31	Cc1ccc(C(=O)NNC(=O)c2ccccc2OCc2c(C)noc2C)cc1	5%
32	CC(C)C[C@@H](CC(=O)N[C@@H](CCCN)CC(=O)N[C@@H]1CCCC[C@H]1C(=O)N[C@H](CC(=O)N[C@@H](CCC(=O)O)CC(=O)O)Cc1c[nH]c2ccccc12)NC(=O)[C@@H]1CNCC[C@H]1N	0%
33	N#Cc1cn(CC(=O)N2CCCc3ccccc32)c2ccccc12	16%
34	Oc1cccc2c(NC(=S)Nc3ccc(OC(F)F)cc3)cccc12	-6%
35	COc1ccc(CC(=O)Nc2cccc(S(=O)(=O)N3CCOCC3)c2)cc1OC	1%
36	CC(C)Nc1nc(NC(C)C)nc(OCCOC(=O)Nc2ccccc2)n1	2%
37	COc1ccc(C(=O)Nc2ccc(N3CCCC3)cc2)cc1OC	10%
38	Cc1ccc(C(C(=O)NC2CCCCC2)N(C(=O)Cc2c[nH]c3ccccc23)c2ccccc2C)o1 (stereo not given)	-22%
39	O=C(CCCOc1ccc(Cl)cc1Cl)N/N=C/c1ccccc1	-8%
40	O=C(NCc1ccco1)c1ccc2c(c1)C(=O)c1ccccc1-2	-9%
41	O=C(CSc1n[nH]c(-c2ccccc2)n1)NCc1cccc(C(=O)O)c1	5%
42	O=C(Nc1cccc(NC(=O)c2ccc3c(c2)OCO3)c1)c1ccccc1	2%
43	CC(=O)c1ccc(N2CCN(C(=O)CCCn3c(=O)[nH]c4ccccc4c3=O)CC2)cc1	-18%
44	CCc1ccc(NC(=O)Cn2nnc(C(=O)NCc3ccc(C)cc3)c2N)cc1	7%
45	CCN(CC)S(=O)(=O)c1ccc(C(=O)NC2CC(=O)N(c3ccc4c(c3)OCCO4)C2)cc1 (stereo not given)	15%
46	CCOc1ccc2cc(C#N)c(SCC(=O)OC)nc2c1	2%
47	COc1cccc(OCCNS(=O)(=O)c2ccccc2[N+](=O)[O-])c1	0%
48	Cc1ccc(CS(=O)(=O)Cc2ccc(C(=O)NCc3cccs3)o2)cc1	-19%
49	CCCC(C(=O)NCc1ccco1)N(Cc1ccco1)C(=O)CNS(=O)(=O)c1ccccc1 (stereo not given)	6%
50	O=C(Nc1ccc(C(F)(F)F)cc1)c1ccc2nc[nH]c2c1	10%
51	CC(C)[C@H]1C=C(C(=O)O)O[C@@H](OCCCCO)C1	0%
52	COc1ccc(F)cc1S(=O)(=O)n1nc(C)cc1C	5%
53	COc1cccc(/C=N/NC(=O)c2c(C)nc3ccc(Br)cn23)c1	9%
54	CN(C)c1nc(=NCc2ccco2)ss1	28µM*
55	Cc1cc(/C=C2\C(=N)N3N=C(CC(=O)N4CCOCC4)SC3=NC2=O)c(C)n1-c1ccccc1	-14%
56	O=C1c2ccccc2C(O)N1CCN1CCOCC1 (stereo not given)	-2%
57	COCc1cccc(NC(=O)CCc2ccccc2)c1	-9%
58	COc1cccc(/C=C/c2ccc3cccc(O)c3n2)c1OC	?
59	Cc1nn(C(=O)c2ccc(Cl)cc2)c(C)c1S(=O)(=O)N1CCCCCC1	-4%
60	Cc1cccc(C)c1-n1ncc(C(=O)NC2CCCC2)c1C1CCNCC1	-15%
61	C=CCn1c(O)c(N=O)c2cc(C)ccc21	-16%
62	COCCNc1oc(/C=C/c2ccc(F)cc2)nc1C#N	0%
63	C#CCOCCOCCOCCNc1nc(N2CCOCC2)nc(N2CCN(C(=O)[C@H](CC(N)=O)n3cc(C(N)[C@@H](C)CC)nn3)CC2)n1 (stereo not given in full)	11%
64	CCC(=O)N1c2ccc(S(=O)(=O)NC3CCCCC3)cc2CC1C (stereo not given)	6%
65	COc1ccc(CNc2ccnc(-c3ccc(C(=O)N(C)C)cc3)n2)c(OC)c1	-7%
66	CCCCNC(=O)COC(=O)c1c2c(nc3ccccc13)/C(=C/c1cccs1)CC2	-17%
67	N#Cc1nc(Cc2ccccc2)oc1NCc1cccnc1	-8%
68	COc1ccc(C(c2nnnn2CC2CCCO2)N2CCN(c3ccc(F)cc3)CC2)cc1 (stereo not given)	-3%
69	COc1ccc(S(=O)(=O)N2CCCCCC2)cc1NC(=O)Cc1ccccc1F	-3%
70	CC1(c2ccc3ccccc3c2)NC(=O)N(CC(=O)Nc2ncccc2O)C1=O (stereo not given)	-4%
71	Cc1ccc(-c2csc(Nc3ccccc3)[n+]2CCc2ccccc2)cc1	0%
72	Cc1cc(C(=O)N2CCCC(N3CCN(c4cccc(C(F)(F)F)c4)CC3)C2)nn1C (stereo not given)	5%
73	CC1(C)CC(=O)NC=C(c2ccccc2)C1	13%
74	COc1ccc(Cn2c(=O)c3oc4ccccc4c3n(CC(=O)Nc3c(C)cccc3C)c2=O)cc1	12%
75	O=C(Nc1ccccc1F)c1ccccc1-c1ccccc1	5%
76	Cc1cc(NC(=O)Nc2ccc3c(ccn3C)c2)sn1	2%&-7%
77	Cc1c(NC(=O)C(C)OC(=O)C23CC4CC(CC(Br)(C4)C2)C3)c(=O)n(-c2ccccc2)n1C (stereo not given)	-1%
78	COC(=O)CCCC(=O)N1CCCC(C(=O)c2ccc(-c3ccccc3)cc2)C1 (stereo not given)	-5%
79	CCCN1C(=O)C2(SC(NC(C)=O)=NN2C(C)=O)c2cc(C)cc(C)c21 (stereo not given)	-2%
80	CCOc1cc(/C=N/n2cnnc2)ccc1OCC(=O)Nc1ccccc1OC	-1%
81	CC1CCC(NC(=O)C2CCC(CNc3c(N4CCCCC4)c(=O)c3=O)CC2)CC1 (stereo not given)	-2%
82	Nc1ccccc1Nc1ccncc1[N+](=O)[O-]	-8%
83	CCOc1cccc(CNC(=O)c2ccc(N3CCCC3)c(NC(=O)NCc3ccc(F)cc3)c2)c1	13%
84	O=C1c2[nH]nc(-c3ccc(Br)cc3)c2C(c2cccc(O)c2)N1c1ccc(Cl)cc1 (stereo not given)	-16%
85	CCn1c(COc2ccc3c(c2)CCCC3)nnc1SCC(=O)Nc1ccc(C(=O)OC)cc1	-8%
86	CCc1ccc(NC(=O)CSc2nc3ccccc3c(=O)n2CCN2CCOCC2)cc1	-10%
87	CC(=O)Oc1ccc(C)cc1-n1nc2ccccc2n1	-13%
88	CCCCN1CC(=O)N2[C@H]3c4cc(C)ccc4OC[C@@H]3[C@H](c3ccccc3)[C@]2(C)C1=O	-15%
89	Cc1cccc(NS(=O)(=O)c2cc(OCC(N)=O)c(C)cc2Cl)c1	22%
90	CCC(c1nnnn1Cc1ccc(OC)cc1)N1CCN(C(=O)c2ccco2)CC1 (stereo not given)	-5%

# More results:
nr	Compound	VDR inh
91	COc1ccc(CNc2nc(N)nc3nc[nH]c23)cc1	12%&5%
92	COc1ccc(CCC(=O)N2CCCSC2=Nc2ccc(C(C)=O)cc2)cc1	-27%
93	CCOc1ccccc1NC(=O)c1cccnc1	-9%
94	CC1CCCN(CCCCOc2cccc(Br)c2)C1 (stereo not given)	27%
95	COc1cccc(CN2CCN(Cc3cc(OC)c(OC)c(OC)c3)CC2)c1OC	-3%
96	CO/N=C(/C(=O)N[C@@H]1C(=O)N2C(C(=O)O)=CCS[C@H]12)c1csc(N)n1	35µM*
97	COc1ccccc1N(Cc1ccccc1)S(=O)(=O)c1cc(C(=O)O)ccc1Cl	-10%
98	O=C(C=Cc1ccco1)c1ccc2ccccc2c1	?
99	CC(C)(C)OC(=O)Cn1c(=O)cnc2ccccc21	8%
100	CCCn1c(N)c(C(=O)NS(=O)(=O)c2ccc(C)cc2)c(=O)n(C)c1=O	-6%
101	O=C(Nc1ccccc1N1CCCC1)c1ccc2ccccc2c1	-2%
102	CN(C)S(=O)(=O)c1ccc(C(=O)NCC(c2cccs2)N2CCOCC2)cc1 (stereo not given)	-3%
103	Cc1ccc(NC(=O)N(Cc2cc3cc(C)cc(C)c3[nH]c2=O)CC2COCCO2)cc1 (stereo not given)	-5%
104	COc1ccc(CNC(=O)c2cnc3sc(N4CCCCCC4)nn3c2=O)cc1	18%
105	O=C(NCC(c1ccco1)N1CCN(c2ccc(F)cc2)CC1)C(=O)NC1CCCCC1 (stereo not given)	-3%
106	Cc1onc(-c2ccccc2Cl)c1C(=O)NCc1nnnn1-c1ccc(F)cc1	-4%
107	CCN(CC(=O)Nc1c(F)cccc1F)C(=O)C1(c2ccccc2)CC1	10%
108	O=c1[nH]c2ccccc2nc1Cc1ccc([N+](=O)[O-])cc1	8%
109	COc1ccc(C2CC(O)(c3ccccc3)Oc3cc(C)cc(C)c32)cc1 (stereo not given)	-17%
110	CC[N+]1(CC(O)COC2CC(C)CC(C)(C)C2)CCOCC1 (stereo not given)	-10%
111	CCN(c1ccccc1)S(=O)(=O)c1ccc(Cl)c(NC(=O)CSc2nncn2C)c1	1%
112	Cc1ccsc1/C=N/n1cnnc1	1%
113	CCOc1ccc(NC(=O)Nc2cc(-c3ccccc3)sc2C(=O)OC)cc1	-22%
114	Cc1cccc(NC(=O)CSc2nc3ccc(NC(=O)COc4ccccc4C)cc3s2)c1	7%
115	O=S(=O)(Nc1ccccc1C(F)(F)F)c1ccc(-c2ccccn2)s1	-6%
116	Cc1ccc(C(=O)O/N=C(\N)Cc2cccs2)c(Cl)c1	19%
117	CCc1nc(N2CCN(C(C)=O)CC2)c(C#N)c2c1COC(C)(C)C2	-7%
118	O=C(Nc1cccc(Cl)c1)C1CCN(S(=O)(=O)Cc2ccccc2)CC1	-1%
119	C[C@@H]1CC[C@]2(O[C@@H](CCO)C[C@@H](O)[C@@H]2O)O1	-18%
120	COC(=O)c1cc(C#N)c(OC(C)C)nc1C	-6%
121	C[C@H](NC(=O)c1nc[nH]c1C(=O)N1CCN(c2ccccc2)CC1)C(=O)OCc1ccccc1	-11%
122	Cc1cn2c(=O)cc(COC(=O)c3cccc(NC(=O)COc4ccc(Cl)cc4)c3)nc2s1	6%
123	COc1cc(/C=C/C(=O)OCC(=O)NC(=O)NCc2ccccc2)ccc1OCC#N	-5%

# Records above marked active in VDR inh:
nr	Compound	VDR inh
54	CN(C)c1nc(=NCc2ccco2)ss1	28µM*
96	CO/N=C(/C(=O)N[C@@H]1C(=O)N2C(C(=O)O)=CCS[C@H]12)c1csc(N)n1	35µM*

# In the list so far, 3 have a CF3 group.
nr	Compound	VDR inh
50	O=C(Nc1ccc(C(F)(F)F)cc1)c1ccc2nc[nH]c2c1	10%
72	Cc1cc(C(=O)N2CCCC(N3CCN(c4cccc(C(F)(F)F)c4)CC3)C2)nn1C (stereo not given)	5%
115	O=S(=O)(Nc1ccccc1C(F)(F)F)c1ccc(-c2ccccn2)s1	-6%

# The list is partial (hit frequency here may not be typical).
